Screening data as filed in PubChem.
AF4-AF9 inh = blocks AF4 peptide binding to human AF9; P42568; AlphaScreen, biotin-AF4 peptide binding to FLAG-AF9; inhibition, % at 10 µM; actives 0.47% (n = 350,000); AID 651704;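 active = every replicate reaching a set inhibition limit, whatever the replicate mean, cut at about 25% in these data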;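 also: 0% = plate neutral control median and 100% = total signal loss; the record names both 10 and 1 µM as test concentration; the first replicate is given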
Target sequence (P42568 whole entry, looked up): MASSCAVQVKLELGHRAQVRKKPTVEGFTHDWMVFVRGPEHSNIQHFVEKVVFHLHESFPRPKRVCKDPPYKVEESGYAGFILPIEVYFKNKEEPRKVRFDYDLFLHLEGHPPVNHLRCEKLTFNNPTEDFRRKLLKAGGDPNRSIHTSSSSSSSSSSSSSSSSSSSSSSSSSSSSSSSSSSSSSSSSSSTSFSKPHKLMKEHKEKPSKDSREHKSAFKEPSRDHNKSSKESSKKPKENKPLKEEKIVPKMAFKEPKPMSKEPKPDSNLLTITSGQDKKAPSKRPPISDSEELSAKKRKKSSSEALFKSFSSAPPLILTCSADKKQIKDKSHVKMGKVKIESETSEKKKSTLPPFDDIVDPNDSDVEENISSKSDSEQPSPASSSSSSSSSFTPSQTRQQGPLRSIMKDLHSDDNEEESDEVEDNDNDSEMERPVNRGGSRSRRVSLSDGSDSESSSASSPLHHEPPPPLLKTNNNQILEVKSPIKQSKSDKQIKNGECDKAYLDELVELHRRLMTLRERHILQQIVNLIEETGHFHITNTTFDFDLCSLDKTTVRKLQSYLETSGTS
FGF22 binding = binders of recombinant human FGF22 by thermal shift; AID 651658; Q9HCT0; calls only at 9.99 µM; actives 1.5% (n = 340,000); SYPRO orange fluorescence; percent of sucrose octasulfate shift, DMSO zero;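 active = melting point raised past a set limit in the mean and every replicate; three in four hits are not shown here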
Target sequence (Q9HCT0 whole entry, looked up): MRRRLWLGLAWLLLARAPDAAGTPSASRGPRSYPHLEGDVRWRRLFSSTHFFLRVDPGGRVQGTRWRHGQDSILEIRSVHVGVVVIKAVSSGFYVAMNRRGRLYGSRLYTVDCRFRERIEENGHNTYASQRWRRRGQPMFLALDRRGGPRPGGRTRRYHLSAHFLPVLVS
Active calls of the source: *; i = inactive; + = active, no number. A portion of the library; rates above refer to the full screens.

smiles | AF4-AF9 inh | FGF22 binding
CC(C)[C@@H](C)/C=C/[C@@H](C)[C@H]1CC[C@@H]2[C@]1(C)CCC1[C@]23C=C[C@]2(C[C@@H](O)CC[C@]12C)N(c1ccc(Br)cn1)O3 (some centres not stated) | 9.5 | i
O=C(O)C1=C[C@@H](c2ccc3c(c2)Cc2ccccc2-3)C[C@@H](OCCCCO)O1 | 2.8 | i
COc1cc(CCc2ccccc2)c(C(=O)O)c(O)c1CC=C(C)C | 2.7 | i
O=C(C1CCC1)N1CCCCN2[C@H](CO)[C@@H](c3ccc(C#CC4CCCC4)cc3)[C@H]2C1 | 10.6 | i
CNC[C@H]1OCCCC[C@H](C)Oc2ccc(NC(=O)CCCN(C)C)cc2C(=O)N([C@@H](C)CO)C[C@@H]1C | -1.8 | i
CCN(CC)S(=O)(=O)c1ccc(O)c(C(=O)OCC(=O)N2CCCc3ccccc32)c1 | -0.9 | i
C[C@@H]1CN([C@H](C)CO)C(=O)c2cc(N(C)C)ccc2O[C@@H](C)CCCCO[C@@H]1CN(C)S(=O)(=O)c1cccs1 | 0.9 | i
COc1ccc([Si](C)(C)[C@@H]2[C@@H](CC(=O)N3Cc4ccccc4C[C@H]3CO)O[C@]3(C(=O)N(Cc4ccc(I)cc4)c4ccccc43)[C@H]2C)cc1 | -2.4 | i
COc1ccc(COC[C@]23Oc4ccccc4[C@H]([C@H]2COC(=O)c2ccc([N+](=O)[O-])cc2)N(C(=O)CC(C)=O)C(=O)N3C)cc1 | 2.3 | i
c1ccc(SC23CCCCN(CCC2)[C@]32CO2)cc1 (some centres not stated) | -3.7 | i
O=C(NCC(=O)N1CCN(Cc2c(F)cccc2Cl)CC1)c1cccs1 | 1.7 | i
O=C(COC(=O)c1cccc(S(=O)(=O)N2CCCCCC2)c1)NCc1ccc(Cl)cc1 | -0.2 | i
CC1Cc2ccccc2N1C(=O)CN1CCN(S(=O)(=O)c2ccc3c(c2)OCCCO3)CC1 (configuration not stated) | -4.8 | i
Cc1c(NC(=O)/C(C#N)=C/c2ccc3ccccc3c2)c(=O)n(-c2ccccc2)n1C | -3.8 | i
O=C1NC[C@@H](Cc2ccc(O)cc2)N(CCCCC2CCCCC2)C1=O | -3.9 | i
NC(=O)NCC#Cc1ccc2c(c1)[C@]1(C(=O)N2)[C@H](C(N)=O)[C@H]2C(=O)O[C@H](c3ccccc3)[C@H](c3ccccc3)N2[C@@H]1c1ccccc1OCCO | 12.2 | i
COc1ccc(CN2C[C@@H](C)[C@H](OC)CN(C)C(=O)c3ccc(NC(C)=O)cc3OC[C@H]2C)cc1 | -0.2 | i
CC(C)(C)CN1C(=O)C(=O)NC[C@@H]1CC1CCCCC1 | 2.3 | i
O=C(CCCc1ccccn1)c1cccc2ccccc12 | 1.0 | i
COc1cccc(-c2ccc([C@H]3[C@@H](CO)N4CCCCN(CC5CCOCC5)C[C@H]34)cc2)c1 | 6.8 | i
O=C(NN=Cc1ccco1)C(=O)Nc1cccc(C(F)(F)F)c1 | -12.3 | i
COc1ccc([Si](C)(C)[C@H]2[C@H](CCn3cc(CCO)nn3)O[C@@]3(C(=O)N(Cc4cccc(N5CCC5=O)c4)c4ccccc43)[C@@H]2C)cc1 | 2.5 | i
O=C(NCc1ccccc1)[C@@]1(CCS(=O)(=O)c2ccccc2)COC(c2ccc(OCCCO)cc2)=N1 | 1.4 | i
CCCNC(=O)C1(C)CCN(Cc2ccc(C(=O)OCC)cc2)C1 (configuration not stated) | -5.7 | i
CCOC(=O)c1cn(C[C@H](Cc2ccccc2)NC(=O)N[C@H](CO)CCc2oc(C(C)=O)c(C(=O)OC)c2C(=O)OC)nn1 | -2.8 | i
COc1ccc2nc3n(c(=O)c2c1)-c1ncccc1C(=O)NC3C (configuration not stated) | 0.2 | i
Cc1ccc(NCC2(N=Cc3ccccc3)OC(CO)C(O)C2O)cc1 (configuration not stated) | 5.0 | i
CO[C@H]1CN(C)C(=O)c2ccc(NC(=O)c3cccc(F)c3)cc2OC[C@@H](C)N(CC2CC2)C[C@H]1C | -1.3 | i
Cc1ccc(C)c(OCCC(=O)N2CCN(S(=O)(=O)c3cc(F)ccc3F)CC2)c1 | -0.3 | i
C[C@@H]1CN([C@@H](C)CO)C(=O)Cc2cc(N(C)C)ccc2O[C@@H]1CN(C)Cc1ccc(Cl)c(Cl)c1 | 43.3* | i
O=C1NC[C@@H](CCCCN2C[C@H](Cc3ccccc3)N(CCC3CCCCC3)C(=O)C2=O)N(Cc2ccccc2)C1=O | 4.5 | i
CC(=O)Oc1ccccc1C(=O)OCO/N=[N+](\[O-])N1CCCC1 | -1.9 | i
CC1(C(=O)Nc2cnc3ccccc3c2)CCN1Cc1cc2ccccc2o1 (configuration not stated) | -1.0 | i
COC(=O)c1ccc2nc(C(C)(C)C)c(Cc3ccc(OC)cc3C)n2c1 | -1.8 | i
CO[C@H]1CN(C)C(=O)c2cc(NC(=O)c3ccccc3)ccc2OC[C@@H](C)N(C(C)=O)C[C@@H]1C | 13.1 | i
CCO[C@@H]1OC(C(=O)N2CCCCCCC2)=C[C@H](C2CC2)[C@H]1CCCO | -1.0 | i
CC1(C(=O)Nc2cccc3c2CCCC3)CCN1C(=O)Cc1ccccc1Cl (configuration not stated) | 1.2 | i
COc1ccccc1N1CCN(CC(=O)Nc2ccccc2C(=O)NCCc2ccccc2)CC1 | 5.5 | i
O=C(NC1CCCC1)C1c2ccccc2OCC(=O)N1C1CC1 (configuration not stated) | -0.9 | i
COC(=O)c1ccc2nc(-c3ccco3)c(Cc3cccc(Cl)c3)n2c1 | -0.3 | i
C[C@H](CO)N1C[C@H](C)[C@@H](CN(C)Cc2ccccc2)OCCCC[C@H](C)Oc2ccc(NC(=O)Nc3ccc(C(F)(F)F)cc3)cc2C1=O | -3.0 | i
O=C(NCc1ccccc1)c1ccc(Br)cc1[N+](=O)[O-] | -2.5 | i
c1ccc(SC23CCCCN(CCC2)C32OCCO2)cc1 (configuration not stated) | -2.3 | i
O=C(C1CCC1)N1CCCCN2[C@@H](CO)[C@@H](c3ccc(C#CC4CCCC4)cc3)[C@@H]2C1 | 9.1 | i
O=C1O[C@@H](c2ccccc2)[C@@H](c2ccccc2)N2[C@@H](c3ccc(OCCO)cc3)[C@]3(C(=O)Nc4ccc(C#CC5=CCCCC5)cc43)[C@@H](C(=O)N3CCCCCCC3)[C@H]12 | -1.4 | i
O=C(c1ccccc1)N1Cc2ccccc2C[C@]2(N=C(c3ccc(OCCCO)cc3)O[C@@H]2c2ccccc2)C1=O | 1.9 | i
Cc1ccc(F)cc1C(=O)N1CCCC1(C)C(=O)NCC(C)C (configuration not stated) | -1.9 | i
Cc1ccc(S(=O)(=O)N2C[C@H]3C(=O)C[C@@H](c4ccccc4)N(S(=O)(=O)c4ccccc4C)[C@H]3C[C@H]2c2ccccc2)cc1 | -1.0 | i
COc1ccc([Si](C)(C)[C@H]2[C@H](CCO)O[C@@]3(C(=O)N(Cc4ccc(N5CCCCC5=O)cc4)c4ccccc43)[C@@H]2C)cc1 | -5.0 | i
COc1ccc(NC(=O)N2CCCCN3[C@H](CO)[C@@H](c4ccc(C5=CCCC5)cc4)[C@@H]3C2)cc1 | -2.8 | i
O=C(C1CCC1)N1CCCCN2[C@@H](CO)[C@@H](c3ccc(-c4cccc(F)c4)cc3)[C@@H]2C1 | -2.1 | i
CCOC(=O)C(Cc1c[nH]c2ccc([N+](=O)[O-])cc12)(NC(C)=O)C(=O)OCC | -0.8 | i
C=CC[C@]1(C(=O)NCc2ccccc2)COC(c2ccc(OCCCO)cc2)=N1 | -1.0 | i
O=C1NC(=O)C(c2ccc(Cl)cc2Cl)N1 (configuration not stated) | -2.0 | i
CC(C)[C@H]1C=C(C(=O)NCc2ccccc2)O[C@@H](OCc2ccc(CO)cc2)C1 | -2.2 | i
Cc1ccsc1C(=O)NCC(c1cccs1)N1CCOCC1 (configuration not stated) | -5.4 | i
O=C1NCC(=O)N2[C@@H]1C[C@@H](C(=O)NCc1ccc(F)cc1)[C@H]2c1ccc(O)cc1 | 3.7 | i
COC(=O)c1cn(CC(=O)N2CCOCC2)nn1 | -6.1 | i
COc1ccc([Si](C)(C)[C@H]2[C@H](CCn3cc(CCO)nn3)O[C@@]3(C(=O)N(Cc4cccc(N5CCOC5=O)c4)c4ccccc43)[C@@H]2C)cc1 | 4.6 | i
COc1ccccc1NC(=O)N1CCCCN2[C@H](C1)[C@H](c1ccc(C#CC3CC3)cc1)[C@@H]2CO | 0.1 | i

More records follow.
smiles | AF4-AF9 inh | FGF22 binding
COC(=O)[C@@]1(Cc2ccccc2CN=[N+]=[N-])COC(c2ccc(OCCCO)cc2)=N1 | 3.9 | i
CC(C)C(=NO)c1ccccc1 | -3.9 | i
CCCNC(=O)N(C)C[C@H]1Oc2cc(C#Cc3ccccn3)ccc2S(=O)(=O)N([C@H](C)CO)C[C@@H]1C | -2.4 | i
COc1ccc(C)cc1-n1c(SCC(=O)N2CCOCC2)nc2ccccc2c1=O | 1.6 | i
CN1CCCC1CCOC(C)(c1ccccc1)c1ccc(Cl)cc1 (configuration not stated) | 6.5 | i
CC(C)NC(=O)N(C)C[C@H]1OCCCC[C@H](C)Oc2ccc(N(C)C)cc2C(=O)N([C@@H](C)CO)C[C@@H]1C | 5.9 | i
COCCCNC(=O)[C@@]1(C)c2ccccc2C(=O)N(Cc2ccc(OC(F)(F)F)cc2)[C@H]1c1ccc(CO)cc1 | -11.0 | i
O=C(O)c1cc(C(=O)O)cc(N2C(=O)c3ccccc3C2=O)c1 | -0.7 | i
O=C(NCCCN1CCOCC1)c1[nH]c(C(F)(F)F)nc1-c1ccccc1 | -2.1 | i
CCn1c(=O)c2[nH]c(SC)nc2n(CC)c1=O | -2.8 | i
C=CCOC(=O)[C@@H]1[C@H]2C(=O)O[C@H](c3ccccc3)[C@H](c3ccccc3)N2[C@H](c2ccc(OCCOC(=O)[C@H]3C[C@H]4C(=O)N5CCC[C@H]5C(=O)N4[C@H]3c3ccc(O)cc3)cc2)[C@@]12C(=O)Nc1ccccc12 | -2.6 | i
CC(C)C1C(=O)N(Cc2cn(CCC3OCCO3)nn2)CCS(=O)(=O)N1Cc1ccc(-c2ccc(F)nc2)cc1 (configuration not stated) | 1.3 | i
COc1ccc(COC[C@@]23Oc4ccccc4[C@@H](NC(=S)N2C)[C@H]3CO[Si](C)(C)C(C)(C)C)cc1 | 0.7 | i
c1ccc2c(c1)nc(N1CCCCCC1)c1nncn12 | 3.3 | i
C[C@@H]1CN([C@@H](C)CO)C(=O)c2cc(-c3cccc(C#N)c3)cnc2O[C@H]1CN(C)C(=O)C1CCC1 | -2.3 | i
COC(=O)c1sc(S(=O)(=O)N2CC(C)OC(C)C2)c(C(=O)OC)c1C (configuration not stated) | 1.3 | i
O=c1oc(-c2ccc(O)c(O)c2)cc2cc(O)cc(O)c12 | 4.5 | +
O=C(COC(=O)c1ccc([N+](=O)[O-])o1)Nc1ccc2c(c1)OC(F)(F)O2 | 0.3 | i
CC(C)C[C@H]1CNC(=O)C(=O)N1C[C@@H]1CCCN1C[C@H](Cc1ccccc1)N1C[C@H](CC(C)C)N(CC2CCCCCC2)C(=O)C1=O | 0.0 | i
Cc1ccc(NCCCn2cnc(C(=O)Nc3ccc(C)c(C)c3)n2)cc1C | -3.8 | i
CC1=C(C(=O)N2CCCCCC2)CC(CC(=O)NCCCCc2ccccc2)C(=O)N1CCC1=CCCCC1 (configuration not stated) | -0.7 | i
COC(=O)c1ccc2c(=O)n(CCCCCC(=O)NC3CCCCC3)c(=O)[nH]c2c1 | -0.9 | i
[N-]=[N+]=Nc1ccccc1C[C@@]1(C(=O)N2CCCCC2)N=C(c2ccc(OCCCO)cc2)O[C@@H]1c1ccccc1 | 6.0 | i
COC(=O)CCCCCCC(=O)Nc1ccc(C2OC(CSc3nc(-c4ccccc4)c(-c4ccccc4)o3)CC(c3ccc([N+](=O)[O-])cc3)O2)cc1 (configuration not stated) | -0.7 | i
CC12CCCCC1=CC(=O)CC2 (configuration not stated) | -3.2 | i
CNc1ncnc2c1ncn2[C@H]1CN(Cc2ccncc2)C[C@@H](CO)O1 | 1.2 | i
C=CC[C@]1(C(=O)N(C)C)COC(c2ccc(OCCCO)cc2)=N1 | -1.3 | i
CCC(C)[C@H]1CNC(=O)C(=O)N1CC(C)(C)C (some centres not stated) | -0.8 | i
CC1(C)C(=O)CCC2(C)C1=CCC1C2C(=O)CC2(C)C1CCC2(O)C(=O)CO (configuration not stated) | -0.9 | i
O=c1c2ccccc2c(=O)n(-c2ccccc2)n1-c1ccccc1 | 2.6 | i
CCO[C@@H]1OC(C(=O)N2CCCC2)=C[C@H](c2ccc(C(F)(F)F)cc2)[C@H]1CCCO | -10.9 | i
COC(=O)C1(N2C(=O)O[C@@H](Cc3ccccc3)[C@H]2/C=C/C2CC2)CCCC1 | -2.0 | i

A portion taken from the entries so far, for reference:
smiles | AF4-AF9 inh | FGF22 binding
COC(=O)[C@@]1(Cc2ccccc2CN=[N+]=[N-])COC(c2ccc(OCCCO)cc2)=N1 | 3.9 | i
CC(C)C(=NO)c1ccccc1 | -3.9 | i
CCCNC(=O)N(C)C[C@H]1Oc2cc(C#Cc3ccccn3)ccc2S(=O)(=O)N([C@H](C)CO)C[C@@H]1C | -2.4 | i
COc1ccc(C)cc1-n1c(SCC(=O)N2CCOCC2)nc2ccccc2c1=O | 1.6 | i
CN1CCCC1CCOC(C)(c1ccccc1)c1ccc(Cl)cc1 (configuration not stated) | 6.5 | i
CC(C)NC(=O)N(C)C[C@H]1OCCCC[C@H](C)Oc2ccc(N(C)C)cc2C(=O)N([C@@H](C)CO)C[C@@H]1C | 5.9 | i
